HNF4A DNA FP: change in binding of human HNF4A to DNA, primary screen, biochemical, fluorescence polarization, FITC-DNA. activity change, % at 10 µM. 0.3% of 360,000 active. 1 h; in the data active means activity change above about 30%, passing the limit was not always enough;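 further: controls were the assay level and a saturating level of protein; the project sought stronger binding though the title names inhibitors; some compounds called inactive have numbers as strong as hits; positive values seem to mean higher polarization but the record does not say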
Target sequence (P41235 whole entry, looked up): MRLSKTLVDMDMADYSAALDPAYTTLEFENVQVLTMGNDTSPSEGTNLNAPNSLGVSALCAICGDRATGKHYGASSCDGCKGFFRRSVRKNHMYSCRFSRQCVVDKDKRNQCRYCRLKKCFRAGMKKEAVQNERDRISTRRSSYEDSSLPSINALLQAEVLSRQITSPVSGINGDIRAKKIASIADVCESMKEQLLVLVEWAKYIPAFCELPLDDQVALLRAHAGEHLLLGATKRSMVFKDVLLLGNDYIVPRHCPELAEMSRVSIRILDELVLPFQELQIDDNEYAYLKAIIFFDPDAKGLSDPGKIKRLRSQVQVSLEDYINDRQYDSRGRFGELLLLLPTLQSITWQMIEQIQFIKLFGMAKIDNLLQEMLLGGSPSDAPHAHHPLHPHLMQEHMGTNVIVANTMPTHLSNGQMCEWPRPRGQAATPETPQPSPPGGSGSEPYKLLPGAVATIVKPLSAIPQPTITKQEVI
Beta2AR agonist: beta2AR agonists driving receptor internalization, primary screen, cell-based, FAP fluorogen, flow cytometry; Beta-2 adrenergic receptor (Homo sapiens), P07550; Am2.2-beta2AR cells; reference of the scale not given here; response, % (concentration not given with the values); 0.43% of 340,000 active; AID 504454, 2011;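 active means response above a set limit, near 3 SD of response in nonfluorescent compounds, cut at about 42% in these data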;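 further: stock transfer was 100 nL into about 11 µL; a reference agonist was the positive control; negative values mostly stem from fluorescent compounds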
Target sequence (P07550 whole entry, looked up): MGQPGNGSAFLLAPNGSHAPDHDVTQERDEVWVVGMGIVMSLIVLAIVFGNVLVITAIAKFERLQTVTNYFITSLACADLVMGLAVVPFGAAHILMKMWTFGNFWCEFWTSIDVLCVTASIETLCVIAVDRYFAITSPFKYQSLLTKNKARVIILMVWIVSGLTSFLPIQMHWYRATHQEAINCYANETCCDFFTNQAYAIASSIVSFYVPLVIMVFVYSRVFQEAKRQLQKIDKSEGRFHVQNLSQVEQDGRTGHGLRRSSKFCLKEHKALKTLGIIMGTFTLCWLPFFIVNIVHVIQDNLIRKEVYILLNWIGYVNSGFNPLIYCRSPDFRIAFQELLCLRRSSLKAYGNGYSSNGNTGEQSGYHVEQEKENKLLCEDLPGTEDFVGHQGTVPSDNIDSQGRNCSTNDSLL
Vif TR-FRET: inhibitors of Vif binding to APOBEC3G peptide, primary screen, biochemical, TR-FRET, GST-Vif 1-94, biotin-A3G peptide, dose response retest (AID 1117319). 0.57% of 260,000 active. TR-FRET GST-Vif / biotin-A3G peptide binding; higher % means a stronger effect; test concentration not given here; strong numbers were not always called active. Virion infectivity factor (Human immunodeficiency virus type 1 group M subtype B (isolate …. inhibition, %, or IC50 in µM where a hit was titrated;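 active means above the screen mean plus three standard deviations and confirmed in dose response; inconclusive means results disagree or hit not tested in dose response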;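 further: Vif residues 1-94 fused to GST binding biotinylated APOBEC3G peptide 110-148; 0% = full assay without inhibitor and 100% = GST in place of GST-Vif; retest series ran down from 100 µM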
LANA-H2B inh: blockers of LANA interaction with H2A/H2B – biochemical, FP readout, HTS, primary screen; Protein LANA1 (Human herpesvirus 8 type P (isolate GK18)), Q9QR71; cell-free LANA-H2A/H2B peptide, fluorescence polarization; inhibition, % (concentration not given with the values); 0.6% of 320,000 active; in the data active means inhibition mostly above about 10%, no sharp cut-off; inactive means mostly below about 6.7%;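 further: stock transfer was 7.5 nL into about 10 µL; 0% = median of vehicle wells and 100% = median of positive control wells; one replicate is shown; the record names a cut of 25% in any replicate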
RanGTP-Impb inh: inhibitors of RanGTP-importin-beta interaction, primary screen, biochemical, FRET, CFP-Ran, YFP-importin-beta, homogeneous. Ran GTPase (GTP-bound) - importin-beta complex. cell-free CFP-Ran/YFP-importin-beta FRET ratio. inhibition, % (no concentration beside the values). 1.1% of 300,000 active;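 active means most replicates above 15%; inconclusive means exactly half above 15%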;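 further: 0% = DMSO wells and 100% = Ran loaded with GDP instead of GTP; wells of about 40 µL received 100 nL stock; the first replicate is given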
ALR H2O2 inh: inhibitors of human ALR sulfhydryl oxidase, primary screen, biochemical, H2O2 detection, HRP-luminol luminescence, single point | FAD-linked sulfhydryl oxidase ALR (Homo sapiens), P55789 | purified ALR, DTT oxidation | inhibition, % (test concentration not listed) | 3.8% of 290,000 active;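 active means mean and each replicate at 75% or more; inconclusive means only one of the two met; inactive means neither met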;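 further: stock transfer was 7.5 nL into about 7.5 µL; 0% = neutral wells and 100% = wells with inactivated enzyme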
Target sequence (P55789 whole entry, looked up): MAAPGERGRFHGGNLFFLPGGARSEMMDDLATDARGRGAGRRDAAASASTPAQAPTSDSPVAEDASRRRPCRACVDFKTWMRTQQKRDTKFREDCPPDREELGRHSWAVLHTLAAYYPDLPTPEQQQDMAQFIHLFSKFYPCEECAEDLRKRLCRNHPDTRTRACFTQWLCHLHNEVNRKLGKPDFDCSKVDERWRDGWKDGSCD
Calb FLC: C. albicans growth inhibition with fluconazole, primary screen, CaCi-2 strain, Alamar Blue fluorescence. C. albicans CaCi-2 (fluconazole-resistant clinical isolate) + fluconazole, 48 h. growth inhibition, % (test concentration not listed). 0.57% of 300,000 active;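 active means most replicates above 75%; inconclusive means exactly half above 75%; inactive means most below 75%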;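 further: all wells also contain fluconazole at 8 µg/ml as a sub-toxic cotreatment; 0% = median of DMSO wells and 100% = median of geldanamycin control wells; wells of about 8 µL received 7.5 nL stock; the first replicate is given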
* marks the source's active call; other numbers are inactive results; i = inactive; ? = inconclusive; nt = not tested or not shown.

Results follow in this order: HNF4A DNA FP	Beta2AR agonist	Vif TR-FRET	LANA-H2B inh	RanGTP-Impb inh	ALR H2O2 inh	Calb FLC
- Cc1ccccc1Nc1nnc(SCC(=O)N(C)C2CCS(=O)(=O)C2)s1 (configuration not stated)
    -1.0	3.2	24.8%	3.9	-5.1	7.0	-4.7
- O=C(N[C@H](C(=O)O)c1ccccc1)C1CCC(Cn2cnc3ccccc3c2=O)CC1 (some centres not stated)
    -1.4	-5.4	26.3%	4.8	0.6	-4.4	-1.2
- COc1ccc(-c2ccc(=O)n(Cc3cccc([N+](=O)[O-])c3)n2)cc1
    4.9	2.1	-2.6%	0.7	-3.4	-4.7	5.1
- Cn1c(O)c(N=NC(=O)C2COc3ccccc3O2)c2ccccc21 (configuration not stated)
    0.1	-14.1	15.6%	1.7	-2.8	-0.5	31.9
- Cc1ccc(C(C(=O)NC(C)(C)C)N(C(=O)CCC(=O)Nc2ccccn2)c2ccccc2F)cc1 (configuration not stated)
    -0.3	-8.6	nt	-4.3	5.5	nt	3.1
- CC(=O)Nc1ccc(C(=O)NCCCOC(C)C)cc1
    -1.8	3.1	nt	-0.3	-5.2	nt	-2.8
- O=C(Nc1ccc2c(c1)OCO2)C1CCN(C(=O)c2ccc(Br)cc2)CC1
    2.5	-0.1	4.7%	-1.6	-0.9	-11.0	15.8
- Cc1nnc(SCC(=O)N(C2CCCCC2)C2CCS(=O)(=O)C2)n1N (configuration not stated)
    1.0	-1.5	-0.8%	-9.3	3.1	-15.9	-0.6
- CC(C)(C)c1ccc(C(=O)NCC(=O)OCC(=O)Nc2ccc3c(c2)OCCO3)cc1
    1.0	-0.7	6.0%	2.8	nt	-4.2	nt
- Cc1onc(-c2c(F)cccc2Cl)c1C(=O)N1C=CC(C(F)(F)F)=NCC1
    -2.2	6.0	2.5%	-1.1	1.3	-0.7	-4.1
- CC1(C)CC(=O)C2(CC3=C(CC(C)(C)CC3=O)O2)C(=O)C1
    -1.8	-0.1	-1.0%	-2.9	-2.2	-4.1	nt
- Cc1cc(/C=N/NC(=O)c2ccsc2)c(C)n1-c1cnccn1
    0.2	-4.0	7.5%	2.0	nt	2.9	-4.7
- COc1ccc2nc(NC(=O)C(NS(=O)(=O)c3cccc4nsnc34)C(C)C)sc2c1 (configuration not stated)
    0.4	-2.2	-4.3%	-1.0	nt	-4.5	nt
- O=S(=O)(N=C(NS(=O)(=O)c1ccc(Cl)cc1)c1ccccc1)c1ccc(Cl)cc1
    3.8	-8.9	-5.0%	4.8	nt	4.1	nt
- Cc1ccc(C2CC(C(F)F)n3ncc(C(=O)Nc4cnn(Cc5ccccc5C)c4)c3N2)cc1 (configuration not stated)
    -1.3	3.4	-7.9%	1.0	5.5	2.1	5.6
- CC(C)(C)S(=O)(=O)/C(C#N)=N/Nc1ccc(S(C)(=O)=O)cc1
    2.1	-7.0	31.2%	5.9	0.9	-5.1	20.1
- O=C(O)c1ccc(/C=N/NC(=O)c2cc(-c3cccs3)nc3ccccc23)cc1
    0.8	-15.9	-2.2%	2.0	2.5	48.8	-0.4
- CCN(CC)C(=O)N1CCN(Cc2ccc3c(c2)OCO3)CC1
    1.6	-2.6	nt	-1.1	-3.2	nt	-10.2
- Cc1nc2nc[nH]n2c(=O)c1NS(=O)(=O)c1ccc(F)cc1
    -1.5	3.2	nt	4.9	-5.2	5.5	2.7
- Cc1ccc(C(C(=O)NCc2ccc(F)cc2)N(C(=O)c2csnn2)C2CC2)cc1 (configuration not stated)
    2.2	-8.1	4.1%	-0.8	-1.6	-11.4	19.9
- Clc1ccc(CN2CCCCCC2)cc1
    0.2	-3.8	nt	6.9	0.5	-2.8	0.1
- COc1ccccc1NC(=O)/C(C#N)=C/c1c(C)nn(-c2ccc(F)cc2)c1Cl
    2.7	6.2	16.0%	-2.9	0.8	-14.2	-4.9
- Cc1ccc(C(=O)NNC(=O)c2cc3cc4ccccc4nc3s2)cc1
    -5.7	-4.6	4.8%	-2.9	-2.3	0.5	45.6
- Cc1ccc(C(=O)NCC(=O)N2CCCC(C(F)(F)F)C2)s1 (configuration not stated)
    0.6	-8.1	4.9%	1.9	1.3	2.8	-4.7
- O=C(c1cnn2c(C(F)(F)F)cc(-c3ccccc3)nc12)N1CCCc2ccccc21
    -1.5	-27.5	?	0.4	0.4	7.3	-3.6
- O=C(Nc1ccc2c(c1)OCO2)[C@@H]1[C@@H]2C(=O)N(C3CCCCC3)C(=O)[C@@H]2C2c3ccccc3C=CN21 (some centres not stated)
    nt	nt	?	4.7	-0.5	2.4	-1.1
- CC(c1nnc(SCn2nnc3ccccc3c2=O)n1-c1ccc(Cl)cc1)N(C)C (configuration not stated)
    -1.6	4.9	75.9%	-4.2	-1.2	2.9	5.0
- COC(=O)c1c(C)nc(C)c2c(=O)oc3ccccc3c12
    -0.4	-6.5	-1.6%	-5.2	-1.5	-3.1	-0.7
- O=C1N(c2ccccc2C(F)(F)F)O[C@@]1(c1ccccc1)C1CCCCC1
    3.5	17.1	nt	-1.5	nt	-13.1	nt
- CCc1cccc(NC(=O)C2CCCN2S(=O)(=O)c2cccc3cccnc23)c1 (configuration not stated)
    -1.5	7.0	nt	1.3	2.3	8.8	?
- COc1ccc(N2C(=O)CC(Nc3cccc(C(C)=O)c3)C2=O)cc1OC (configuration not stated)
    5.8	1.4	-0.8%	9.4	-1.1	0.0	-6.8
- O=C(O)CN1C(=O)C2(OCCO2)c2cc(Br)ccc21
    -2.6	-5.7	nt	4.8	13.6	-8.1	5.4
- O=C(Nc1nnc(-c2cccnc2)o1)c1cccc([N+](=O)[O-])c1
    nt	nt	4.8%	0.6	-4.1	89.6*	34.5
- CCOC(=O)C1=C(C)N(C)C(=O)NC1c1cc2c(cc1[N+](=O)[O-])OCO2 (configuration not stated)
    -13.2	-1.0	24.3%	2.0	-1.2	-4.5	18.5
- Cc1ccc([N+](=O)[O-])c(OCCN2CCNCC2)c1
    1.9	1.8	nt	-2.6	-0.9	-6.9	-0.4
- CSc1ccc(Cl)c(C(=O)NNC(=O)c2csc(N3CCOCC3)n2)c1
    1.2	-2.3	-5.1%	5.7	9.1	11.9	5.1
- COc1ccc2cc(-c3[nH]ncc3CN3C[C@@H]4CCC[C@H]3C4)ccc2c1
    3.1	-7.3	26.3%	8.6	8.5	5.4	13.2
- COCCN(C(=S)Nc1ccc(OC)cc1)C1CCN(C(C)=O)CC1
    -1.0	0.0	nt	-2.1	-0.2	-0.7	-1.7
- CC(C)CCN1CCNC(=O)C1CC(=O)NCCCN1CCOCC1 (configuration not stated)
    -3.1	1.4	4.4%	nt	4.7	-20.6	-3.4
- CNC(=O)Nc1nnc(C(C)(C)C)s1
    0.4	-1.8	-4.8%	-0.6	-0.2	nt	-0.1
- NS(=O)(=O)c1cccc(NC(=O)C2CC(=O)N(Cc3ccco3)C2)c1 (configuration not stated)
    -1.0	3.1	13.1%	1.1	-0.6	0.2	-2.0
- CCN(CC)S(=O)(=O)c1cc(NC(=O)COC(=O)c2c(C)noc2C)ccc1C
    -0.3	2.5	-3.6%	-0.1	nt	0.6	nt
- Cc1ccccc1C(=O)Nc1cc(-c2cc(C(C)(C)C)oc2C)nn1C
    1.2	0.9	nt	-4.4	-0.6	8.4	-1.4
- Cc1cc(C(=O)NC2CCCN(Cc3ccc(Cl)cc3)C2)n(C)n1 (configuration not stated)
    1.3	7.4	0.8%	-8.6	-1.6	-13.3	-11.1
- Cc1cccc(C(C)C)c1NC(=O)COC(=O)CCN1C(=O)C2CC=CCC2C1=O (configuration not stated)
    -2.3	9.0	4.4%	-2.9	-6.3	-3.3	3.8
- O=c1[nH]c(NCCCO)nc2c1C1(CCCC1)Cc1ccccc1-2
    -1.6	-11.1	0.4%	0.0	9.8	0.0	12.4
- Cn1c(SCC(=O)c2ccccc2)nc2cccnc21
    0.1	-13.5	4.2%	97.7*	-0.5	-0.8	-3.6
- CCOC(=O)c1[nH]c2ccccc2c1NC(=O)c1nonc1C
    0.3	0.1	-4.5%	-1.4	-3.7	-8.0	10.0
- COc1ccc(-c2coc3cc(OC4OC(CO)C(O)C(O)C4O)ccc3c2=O)cc1 (configuration not stated)
    -1.0	-4.7	-2.0%	-2.7	-0.6	-5.8	-13.6
- O=C(Nc1ccccc1)N1C(=O)C2(OCCO2)c2ccccc21
    2.8	-6.5	?	1.9	2.4	1.2	13.2
- CC(C)(C)c1ccc(S(=O)(=O)N2CCCC2C(=O)NC2=NCCS2)cc1 (configuration not stated)
    -1.4	7.5	-3.8%	2.3	0.9	0.5	-9.0
- C=CCSc1ncccc1C(=O)NCCc1ccccc1
    3.8	2.5	nt	-3.8	3.5	-6.8	3.4
- Cc1nc(SCC(=O)NC(=O)NC(C)C)nc(C)c1C
    0.8	-5.2	nt	0.4	-3.7	nt	-17.3
- COc1ccc(CNCc2ccc(OC)c3ccccc23)cc1
    0.3	1.4	0.0%	-0.5	-1.6	-1.1	0.7
- Cc1cccc(C2NC(=O)c3ccccc3N2)c1 (configuration not stated)
    -1.3	-17.9	-6.3%	nt	nt	nt	nt
- CCc1nnc(NC(=O)CCC(=O)N2CCN(Cc3ccc(F)cc3)CC2)s1
    -3.8	1.5	nt	4.5	1.5	0.2	-2.8
- Cc1[nH]n(-c2ccc(Cl)cc2)c(=O)c1C=NC12CN3CN(CN(C3)C1)C2
    2.9	-2.9	nt	-1.6	0.0	-1.0	1.1
- CC(C)(C)N(CC#CCC(O)(c1ccccc1)C1CCCC1)CCO (configuration not stated)
    -2.8	-3.6	nt	-2.0	4.1	-15.5	5.1
- C=CCC[C@@H](Cc1ccc(F)cc1)C(=O)OC[C@H](C)NC(=O)[C@@H](CC=C)CC(=O)N(CCO)Cc1ccccc1
    -1.4	0.9	3.6%	nt	nt	nt	nt
- Cc1ccccc1OCC(O)CN1CCCCC1 (configuration not stated)
    -2.8	0.2	4.2%	-1.1	-3.9	-1.3	-27.4

Of the compounds above, 2 have bromine.
Results follow in this order: HNF4A DNA FP	Beta2AR agonist	Vif TR-FRET	LANA-H2B inh	RanGTP-Impb inh	ALR H2O2 inh	Calb FLC
- O=C(Nc1ccc2c(c1)OCO2)C1CCN(C(=O)c2ccc(Br)cc2)CC1
    2.5	-0.1	4.7%	-1.6	-0.9	-11.0	15.8
- O=C(O)CN1C(=O)C2(OCCO2)c2cc(Br)ccc21
    -2.6	-5.7	nt	4.8	13.6	-8.1	5.4

Next section.
Results follow in this order: HNF4A DNA FP	Beta2AR agonist	Vif TR-FRET	LANA-H2B inh	RanGTP-Impb inh	ALR H2O2 inh	Calb FLC
- CCN1CCN(C(=O)c2nn(-c3ccc(OC)cc3)c(=O)c3c2c2ccccc2n3C)CC1
    -0.3	5.0	0.3%	-2.8	-0.8	2.5	-19.7
- Cc1ccccc1Nc1nc(N)nc(CSc2ccc(F)cc2)n1
    5.3	-4.0	-2.6%	-1.8	-0.3	5.3	-27.7
- Cc1ccc(Cl)cc1N1C(=O)CC(Sc2ncccn2)C1=O (configuration not stated)
    4.2	4.7	nt	-0.1	16.1*	-2.0	39.5
- Cc1cc(N2CCN(c3ccccc3)CC2)nc(N)n1
    -0.3	-8.2	-0.1%	3.5	-2.7	97.8*	?
- COc1cc(N2CCCC2)c(OC)cc1/C=C(/C#N)c1ccc(Br)cc1
    113.4	i	24.4%	-2.3	-15.1	-11.4	-7.9

High-throughput results from PubChem BioAssay.
